# Compound activity from PubChem BioAssay.
# StopGo RLuc = lowers the Renilla signal of an FMDV 2A StopGo reporter; Potency, µM (highest dose often 57.5 µM), for inactives: at the highest dose signal change, negative = less light; HEK cells with a luciferase reporter of 2A StopGo recoding; AID 1745857; 0.32% of 120,000 active; active means well fitted falling curve with a large enough effect; inconclusive means small, poorly fitted or top-dose-only effect; inactive means no such curve, though single readings can be large or run the other way; also: nearly all actives have a fitted effect of over 55% in size; overnight with compound
# 2A firefly = FMDV 2A StopGo reporter, firefly signal | Potency, µM (titrated, usually from 57.5 µM), without a hit: at the top dose signal change, negative = less light | HEK cells with a luciferase reporter of 2A StopGo recoding | 0.23% of 120,000 active | AID 1745856; active = well fitted falling curve with a large enough effect; inconclusive = small, poorly fitted or top-dose-only effect; inactive = no such curve, though single readings can be large or run the other way; also: nearly all actives have a fitted effect of over 60% in size; overnight with compound
# Active calls of the source: *; ? = inconclusive; & = joins results of further samples; [ ] = another dose, or the depositor's remark. % is scaled to controls: 0 for no effect and ±100 for the full control effect; potency is read from the fitted curve at half-maximal effect.
# The first seven records, ahead of the listing:
# Values run as follows: 2A firefly	StopGo RLuc
> COc1ccc(/C=C/C(Cc2cccc(C(C)=O)c2)c2ccc(C)cc2)cc1 (stereo not given)
  3%	-2%
> CC(C)(C)c1ccc(C(=O)NC2=NC(c3cccc(F)c3)CC(=O)N2)cc1 (stereo not given)
  -4%	-8%
> O=C(CSc1ncnc2c1oc1ccccc12)NC1CCCCC1
  0%	-4%
> NC(=O)c1ccccc1NC(=O)c1ccccc1-c1ccccc1
  44%	46%
> CCCCCNC(=O)CCc1c[nH]c2ccccc12
  1%	-11%
> CC(=O)c1ccc(OC(=O)c2c(-c3ccccc3Cl)noc2C)cc1
  21%	29%
> O=C(COC(=O)C1C2CC3OC(=O)C1C3C2)c1ccccc1 (stereo not given)
  0%	-7%

# The whole of this part, from the start:
# Values run as follows: 2A firefly	StopGo RLuc
> COc1ccc(/C=C/C(Cc2cccc(C(C)=O)c2)c2ccc(C)cc2)cc1 (stereo not given)
  3%	-2%
> CC(C)(C)c1ccc(C(=O)NC2=NC(c3cccc(F)c3)CC(=O)N2)cc1 (stereo not given)
  -4%	-8%
> O=C(CSc1ncnc2c1oc1ccccc12)NC1CCCCC1
  0%	-4%
> NC(=O)c1ccccc1NC(=O)c1ccccc1-c1ccccc1
  44%	46%
> CCCCCNC(=O)CCc1c[nH]c2ccccc12
  1%	-11%
> CC(=O)c1ccc(OC(=O)c2c(-c3ccccc3Cl)noc2C)cc1
  21%	29%
> O=C(COC(=O)C1C2CC3OC(=O)C1C3C2)c1ccccc1 (stereo not given)
  0%	-7%
> O=C(COc1ccc2c(=O)c(-c3ccc(Cl)cc3)coc2c1)Nc1ccc(O)cc1
  26%	-17%
> C=C1CC[C@@]2(O)[C@H]3Cc4ccc(O)c5c4[C@@]2(CCN3CC2CC2)[C@H]1O5
  -12%[11.5 µM]	-6%
> COCCN(Cc1cccs1)S(=O)(=O)c1ccc(C(=O)O)cc1
  0%	-6%
> Cc1cccc(-c2cc(Nc3ccc(SC#N)cc3)nc(C)n2)c1
  150%[activator]	-13%
> Cc1ccc(-c2nn(CC(=O)N3CCN(C)CC3)c(=O)c3ccccc23)cc1
  -2%	-5%
> C[C@]12CC[C@@H]3c4ccc(O)cc4CC[C@H]3[C@@H]1C[C@@H](O)[C@@H]2O
  5%[11.5 µM]	13%
> COc1cccc(N2CCN(C(=O)c3cnc4c(-c5ccc(F)cc5)c(C)nn4c3C)CC2)c1
  -20%	-14%
> CC(C)(Oc1ccc(Cl)cc1)C(=O)Nc1ccc2oc(-c3cccnc3)nc2c1
  0%	0%
> Cc1ccc(NCc2cccn2-c2nnc(N3CCC(C(=O)NCCC(C)C)CC3)s2)cc1
  ?	0%
> CCc1nnc(SCc2nc(-c3cccc(Cl)c3)oc2C)c2cc3sc(C)cc3n12
  169%[activator]	124%[activator]
> Cn1c(C(=O)Nc2ccccc2Cl)c(Cl)c2ccccc21
  220%[activator]	-2%
> Cc1oc(-c2nc(C#N)c(N3CCN(c4ccccc4)CC3)o2)cc1S(=O)(=O)N(C)C
  2%	-5%
> CCOc1ccc2c(c1)cc(C(=O)Nc1cc(C)ccc1F)n2C
  -4%	2%
> Cc1ccc(O)c(C(=O)c2cc(C#N)c(=O)n(-c3ccccc3C(F)(F)F)c2)c1
  1%	66%[activator]
> CCc1ccc(CCC(=O)NCc2ccncc2)cc1
  -11%	-8%
> C#CC[N+](CC#Cc1ccccc1)(CCC)CCC
  -6%	2%
> Cc1ccc(-c2nc(N)sc2CC(=O)OCC(=O)Nc2ccc(C)c(C)c2)cc1
  2%	-9%
> CSc1nc(C)nc2c1c(=O)n(C)c(=O)n2CC(C)C
  -6%	-10%
> CCOC(=O)C(NC(=O)CC)C(OC(=O)CC)c1ccccc1 (stereo not given)
  6%	11%
> CCNCc1ccc(-c2ccc(F)c(Cl)c2)o1
  0%	6%
> Cc1nc(-c2ccccc2F)sc1C(=O)N1CCC(C(=O)O)CC1
  46%[activator]	2%
> CCOC(=O)c1cc(-c2ccc(OC)cc2)n(CCC(=O)NCc2ccc(OC)cc2)c1C
  -15%	0%
> O=C(NC1CCCCCC1)c1ccc2c(Cl)c3c(nc2c1)CCCC3
  228%[activator]	21%
> CCN(CC)S(=O)(=O)c1ccc(NC(=O)c2ccc3c(=O)n4c(nc3c2)CCCCC4)cc1
  ?	?
> COc1cccc(C(=O)COC(=O)C(CC(=O)c2ccccc2)Nc2ccc(F)cc2)c1 (stereo not given)
  27%	32%
> COc1ccc(/C(O)=C2\C(=O)C(=O)N(Cc3cccnc3)C2c2ccccc2F)cc1 (stereo not given)
  12%	0%
> COc1ccccc1-c1nnc(SCC(=O)c2ccc(F)cc2)n1-c1ccccc1
  44%[activator]	22%
> CCN(CC)CC(=O)NC(=O)Nc1ccccc1
  79%[activator]	1%
> N#Cc1ccccc1N=Cc1ccccc1Cl
  4%	4%
> COc1ccc(CCNC(=O)c2nnc(Cc3ccc(Cl)cc3)o2)cc1OC
  -7%	-10%
> Cc1ccc(OCC(=O)Nc2nnc(S(=O)(=O)N3CCCCCC3)s2)cc1
  -18%	-14%
> CN(C)C(=O)CSc1nc(-c2ccccc2)c(-c2ccccc2)o1
  8%	23%
> Cc1cccc2nc(-c3cccnc3)c(Nc3ccc(C(C)C)cc3)n12
  ?	?

# Among those listed so far, these have a thiophene ring, fused or not:
# Values run as follows: 2A firefly	StopGo RLuc
> COCCN(Cc1cccs1)S(=O)(=O)c1ccc(C(=O)O)cc1
  0%	-6%
> CCc1nnc(SCc2nc(-c3cccc(Cl)c3)oc2C)c2cc3sc(C)cc3n12
  169%[activator]	124%[activator]

# Carrying on:
# Values run as follows: 2A firefly	StopGo RLuc
> CN(CC(=O)NC(N)=O)C1CCCC1
  0%	-2%
> Cc1ccc(NC(=O)CSc2ncc(-c3ccccc3)[nH]2)cc1
  20%	2%
> Cc1ccsc1CN(C)C(=O)Cc1c[nH]c2ccccc12
  190%[activator]	159%[activator]
> CC1COCCN1C(=O)Cn1cnc2sccc2c1=O (stereo not given)
  -6%	-12%
> COc1ccc(OC)c(S(=O)(=O)N2CCN(C(=O)NC3CC3)CC2)c1
  -10%	-10%
> Cc1ccc(S(=O)(=O)N2CCCCC2C(=O)N2CCCCCC2)cc1 (stereo not given)
  -6%	26%
> COC(=O)c1ccccc1C(=O)OCC(=O)c1ccccc1
  14%	11%
> S=C(NCCc1ccccc1)NCc1ccc(Cl)cc1
  0%	135%[activator]
> COc1ccc2cc3cc(C(=O)N4CCN(c5ccc(C(C)=O)cc5)CC4)sc3nc2c1Cl
  -10%	-10%
> CC(C)N(C)CC1CCN(C(=O)Nc2cccc(Cl)c2)CC1
  -3%	-5%
> Nc1nc(Nc2ccc(F)c(Cl)c2)sc1C(=O)c1ccccc1
  0%	7%
> COc1cc(-c2nc3cc(NC(=O)c4ccccc4)ccc3o2)cc(OC)c1OC
  26%	71%[activator]
> O=C(CSc1ccc2c(c1)OCCCO2)Nc1ccccc1C(=O)c1ccccc1
  16%	10%
> COc1ccc(OCc2ccc(C(=O)O)o2)cc1
  ?	5%
> CCOc1ccc(/C=C/C(=O)Nc2sc3c(c2C(=O)OC)CCCC3)cc1
  4%	-9%
> O=C(O)CCNS(=O)(=O)c1cccc(Cl)c1
  -1%	-8%
> Cc1ccc(-n2nc(C)c3c(C(=O)Nc4ccc(C)cc4Cl)cc(C)nc32)cc1
  -23%	-14%
> Cc1cccc(OCCn2cc(S(=O)(=O)N3CCCC3)ccc2=O)c1
  12%	12%
> N#Cc1ccc(C(=O)Nc2ccccc2-c2nc3ccccc3s2)c(F)c1
  11%	-5%
> Cc1nc2nc(SCC(=O)NC3CCCCC3)nn2c(C)c1Cc1ccccc1Cl
  -5%	-6%
> Cc1[nH]ccc(=O)c1OCC(=O)Nc1ccncc1
  1%	-8%
> O=C(Cc1c[nH]c2ccccc12)N1CCN(CC(=O)N2CCCCCC2)CC1
  10%	2%
> CCN(c1cc(C)cc(C)c1)S(=O)(=O)c1nnc(NC(=O)c2cccc(F)c2)s1
  ?	11%
> Clc1cccc(Cl)c1COc1cccc(-n2cnnn2)c1
  35%[activator]	54%[activator]
> O=C(NCC(c1ccc2c(c1)OCO2)N1CCOCC1)C(=O)Nc1ccc(F)cc1F (stereo not given)
  18%	2%
> N#C/C(=C\c1ccc(-c2cccc(C(F)(F)F)c2)o1)c1ccccc1
  71%[activator]	11%
> CCNc1c(NC(=O)Nc2ccccc2)c(=O)oc2ccccc12
  -4%	-5%
> CCCCc1ccc(NC(=O)Cn2cc(C#N)c3ccccc32)cc1
  6%	-4%
> CC(=O)Nc1ccc(S(=O)(=O)Nc2cccc(-c3ccc(N4CCCCCC4)nn3)c2)cc1
  155%[activator]	183%[activator]
> COc1cccc(NC(=O)CSC2=C(C#N)C(c3ccccc3C)C3=C(CCCC3=O)N2)c1 (stereo not given)
  18%	-26%
> COc1cccc(CNC(=O)CSc2nc(-c3ccccc3C)nc3cc(=O)[nH]n23)c1
  49%[activator]	46%[activator]
> CCCCCc1c(C)nc(Nc2nc(C)c3cccc(OC)c3n2)[nH]c1=O
  4%	-5%
> O=C(Nc1sc2c(c1C(=O)NCc1ccco1)CCCC2)c1cc(=O)c2ccccc2o1
  86%[activator]	-8%
> O=C(CSc1nccn2nc(-c3cccc4ccccc34)cc12)NCc1ccco1
  59%[activator]	34%[activator]
> CCN1CCC(N(C(=O)c2ccc3ccccc3n2)C2CC2)CC1
  -11%	-11%
> CC(=O)Nc1cc(C(=O)NCc2ccccc2Cl)ccc1Sc1ccc(F)cc1
  -19%	21%
> COc1ccccc1OCC#CCN1CCC(Cc2ccccc2)CC1
  -7%	-28%
> CC1CN(C(=O)Nc2ccc(C(=O)NCCc3ccc(Cl)cc3)cc2)c2ccccc2S1 (stereo not given)
  -14%	-10%
> N#Cc1cccc(/C=C/C(=O)c2cccs2)c1
  111%[activator]	17%
> O=[N+]([O-])c1ccccc1/C=N/Nc1ccc(S(=O)(=O)Nc2cccc(Cl)c2)cc1[N+](=O)[O-]
  11µM*	-77%
> CCc1ccc(S(=O)(=O)c2nnn(-c3cccc(C)c3)c2N)cc1
  -23%	69%[activator]
> CC(C)(C)C1CCC2(CC1)C(C#N)=C(SCC(=O)Nc1ccccc1)NC(=O)C2C#N (stereo not given)
  ?	?
> NS(=O)(=O)c1ccc(N/N=C/C(Br)=C/c2ccccc2)c([N+](=O)[O-])c1
  37%[activator]	-6%
> Cc1ccc(Sc2cc(C)c3cccc(C(C)C)c3n2)cc1
  5%	-6%
> COc1ccc(NC(=O)CC2C(=O)N(c3cccc(OC)c3)C(=O)N2CCc2cccs2)cc1 (stereo not given)
  -20%	121%[activator]
> O=C1CC(c2cccc(Br)c2)c2c(n3c(nc4ccccc43)[nH]c2=O)N1 (stereo not given)
  -11%	-12%
> Cc1ccc(NC(=O)c2ccc(=O)n(Cc3ccccc3C)c2)c(C)c1
  -8%	-9%
> O=C(Nc1ccc(OCc2ccccc2)cc1)c1ccc2ccccc2c1
  0%	2%
> CCc1ccc(NC(=O)CC(NCc2cccnc2)C(=O)O)cc1 (stereo not given)
  0%	-12%
> CC1=C(C(=O)Nc2ccc(C)cc2)C(c2ccc(Cl)cc2)n2nnnc2N1 (stereo not given)
  -23%	?
> O=C1Nc2ccccc2CCC1n1nc(-c2ccccc2F)ccc1=O (stereo not given)
  -3%	14%
> Cc1ccccc1-c1nnn(CC(=O)N2N=C(c3cccs3)CC2c2cccs2)n1 (stereo not given)
  16%	3%
> CC(COc1cccc(F)c1)CN1CCC(C(O)(c2ccccc2)c2ccccc2)CC1 (stereo not given)
  37%[activator]	20%
> COC(=O)c1cc(NC(=O)c2cccc3ccccc23)cc(C(=O)OC)c1
  16%	44%[activator]
> Cc1ccc(S(=O)(=O)NCCc2cn3ccsc3n2)cc1
  -20%	2%
> COc1ccccc1OCC(=O)NCc1cc(C)nc2ccccc12
  ?	?
> COC(=O)c1ccn(Cc2ccccc2Br)n1
  157%[activator]	3%
> Cc1c(Cl)cccc1NC(=O)CSc1nc2c(=O)n(C)c(=O)n(C)c2n1C
  1%	-3%
> O=C(NCc1ccc(F)cc1)C(Sc1ccccc1)c1ccccc1 (stereo not given)
  4%	1%
> Cc1ccccc1CNc1nc(N(C)C)nc2c1cnn2C
  -11%	12%

# New compounds follow.
# Values run as follows: 2A firefly	StopGo RLuc
> CCN(CC)c1ccc(C2C(C(N)=O)=C(C)Nc3ncnn32)cc1 (stereo not given)
  4%	-4%
> Cc1ccc(-c2nc(CCNC(=O)C(=O)Nc3ccc(F)cc3F)cs2)cc1
  17%	-13%
> Cc1cc(Br)cc2c1N(Cc1ccccc1OC(C)C)C(=O)C2=O
  -54%&13%	?
> O=C(c1cccc(Cl)c1)N(Cc1ccco1)Cc1ccccc1Cl
  25%	126%[activator]
> Cn1c(=O)c2c(ncn2CCC(=O)Nc2ccc(Br)cc2F)n(C)c1=O
  -12%	-12%
> Cc1nnc(CN2CCC(NC(=O)c3cnn(C)c3)CC2)o1
  8%	-1%
> COc1ccccc1C(=O)Nc1ccc(-c2nc3cc(C)cc(C)c3o2)cc1
  ?	?
> CCC1CN(C(=O)N2CCC(C(=O)NCc3cccc(OC)c3OC)CC2)c2cc(C)ccc2O1 (stereo not given)
  ?	-9%

# Profiles as entered above.
# Shown for `COc1ccccc1C(=O)Nc1ccc(-c2nc3cc(C)cc(C)c3o2)cc1` = 2A firefly: ?; StopGo RLuc: ?
# Shown for `Cc1cc(Br)cc2c1N(Cc1ccccc1OC(C)C)C(=O)C2=O` = 2A firefly: -54%&13%; StopGo RLuc: ?

# Only part of the results is shown (hit frequency here may not be typical).
